Screens: PubChem BioAssay, several laboratories
RGS16-Gao HTS – modulators of RGS16 binding to Galphao, primary screen, biochemical, human proteins, multiplexed bead flow cytometry; bead-based flow cytometry RGS16-Galphao binding, fluorescence; actives lie on both sides; binding response (% of control), % at 10 µM; 0.38% of 220,000 active; AID 1441, 2008;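 active = below 25% or above 175%, edge rows of some plates excepted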;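 also: Galphao activated by GDP with aluminum fluoride before binding; 100% = wells without compound and 0% = beads without RGS; some results beyond the cut were filed as inactive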
Target sequence (O15492 whole entry, looked up): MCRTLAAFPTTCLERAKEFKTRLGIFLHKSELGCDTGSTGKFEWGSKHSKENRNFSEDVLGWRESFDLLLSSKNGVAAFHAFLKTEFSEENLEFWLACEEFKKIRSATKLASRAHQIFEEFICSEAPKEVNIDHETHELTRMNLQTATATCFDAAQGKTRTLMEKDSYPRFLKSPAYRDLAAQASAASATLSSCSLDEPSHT
Target sequence (P09471 whole entry, looked up): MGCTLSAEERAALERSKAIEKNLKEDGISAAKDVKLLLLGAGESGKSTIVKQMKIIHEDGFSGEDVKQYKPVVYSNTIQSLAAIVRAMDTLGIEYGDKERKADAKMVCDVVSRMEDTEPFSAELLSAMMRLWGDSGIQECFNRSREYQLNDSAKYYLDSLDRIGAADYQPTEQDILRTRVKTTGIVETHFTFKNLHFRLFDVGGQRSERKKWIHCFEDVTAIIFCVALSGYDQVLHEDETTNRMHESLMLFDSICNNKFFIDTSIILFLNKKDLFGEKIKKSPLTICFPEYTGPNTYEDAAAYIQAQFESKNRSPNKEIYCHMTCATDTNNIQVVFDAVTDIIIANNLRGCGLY
PKD1 kinase inh – inhibitors of human PKD1 kinase, biochemical, fluorescence polarization; 0.056% of 200,000 active; AID 797, 2007; PKD1 kinase fluorescence polarization assay; inhibition, %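 (about 10 µM by stock and volumes)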; Serine/threonine-protein kinase D1 (Homo sapiens), Q15139;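 active = inhibition of 50% or more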;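 also: controls were vehicle for no effect and a reference inhibitor for full effect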
GALR2 ag – GALR2 receptor agonists, primary screen, cell-based. AID 803, 2007. Galanin receptor type 2 (Homo sapiens), O43603. activation, %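 (tested at 5 µM)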. 0.48% of 140,000 active. GALR2-expressing cells, agonist activation read-out;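 active = above mean plus 3 SD of all compounds, about 5% in these data, not always enough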;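 also: 0% = vehicle buffer wells and 100% = reference agonist at full effect; tested in CHO reporter cells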
Target sequence (O43603 whole entry, looked up): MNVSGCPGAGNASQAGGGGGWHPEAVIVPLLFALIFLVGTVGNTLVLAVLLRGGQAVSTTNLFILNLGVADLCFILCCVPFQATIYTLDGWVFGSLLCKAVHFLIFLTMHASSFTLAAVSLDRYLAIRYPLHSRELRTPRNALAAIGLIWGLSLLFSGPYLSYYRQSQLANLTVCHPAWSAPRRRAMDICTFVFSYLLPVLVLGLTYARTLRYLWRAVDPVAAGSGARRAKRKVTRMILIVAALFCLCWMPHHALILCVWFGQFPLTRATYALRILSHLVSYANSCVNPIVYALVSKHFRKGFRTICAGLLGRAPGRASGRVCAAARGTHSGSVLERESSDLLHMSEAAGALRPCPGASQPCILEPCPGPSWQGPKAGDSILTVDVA
HSV replic up – enhancers of HSV replication in host cells, fold increase, host cell viability; 0.005% of 220,000 active; HSV replication augmentation in cells; AID 1956, 2009; maximum fold increase;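 active = peak rise of 1.5-fold or more in the series; tested in PC3 cells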;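 also: first round at 10 µM; read as green reporter fluorescence; hits show the peak of a series up to 25 µM; 1 = signal of infected wells without compound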
INS promoter inh – inhibitors of insulin promoter-driven GFP, primary screen, imaging, TRM-6 cells (human fetal islet line), eGFP reporter, cell count. reporter expression induced with tamoxifen. inhibition, % at 2 µM. 0.9% of 130,000 active. AID 1273, 2008;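 active = inhibition above the mean plus 3 SD, with well images judged a real hit on visual review, cut at about 60% in these data, passing the limit was not always enough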
INS promoter inh cell count – second read-out of INS promoter inh, no call of its own (marks repeat the call); normalized cell count, %; measured here: cell count, toxicity; reference of the scale not given here;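 cells exposed to compound for 48 h; stained nuclei by imaging scaled within each plate; lower means fewer cells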
HSV replic up primary fold – recorded beside HSV replic up, whose call it bears; fold increase; compound at 10 µM; measured here: primary screen fold increase 10 uM; tested in PC3 cells;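 GFP signal in the first replicate; 1 = infected wells without compound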
* hit, by the source's call; i = inactive; nt = not tested or not shown; [ ] = remark or other dose.

canonical_smiles	RGS16-Gao HTS	PKD1 kinase inh	GALR2 ag	HSV replic up	HSV replic up primary fold	INS promoter inh	INS promoter inh cell count
N#C/C(=C/c1ccccc1[N+](=O)[O-])C(=O)NCc1ccco1	99	10	-0.7	i	1.1	nt	nt
CCNc1nc(N)nc(Oc2ccc(OCCOc3ccccc3)nn2)n1	99	-2	-0.6	i	0.9	-12	92
COc1ccccc1C(=O)Nc1nnc(-c2ccc3c(c2)CCCC3)o1	105	-11	-2.2	i	0.85	nt	nt
NC(Cc1ccc(Oc2ccc(O)cc2)cc1)C(=O)O (centres undefined)	104	2	-1.1	nt	nt	29	91
COc1cccc(NC(=O)Cn2c(CCC(=O)O)ccc2-c2ccc(C)cc2)c1	98	8	nt	i	1	nt	nt
O=C(CNCc1ccccn1)Nc1cc(C(F)(F)F)ccc1N1CCOCC1	104	nt	nt	i	1	nt	nt
COCCCNCCC(CCC(C)C)c1ccc2c(c1)OCO2 (centres undefined)	95	nt	nt	i	0.89	nt	nt
CCn1c(SCC(=O)N/N=C/c2ccc(O)c(OC)c2)nc2ccccc21	97	2	0.1	i	1.1	-48	83
N#C/C(=C/c1cc[nH]c1)C(N)=S	103	-4	nt	i	1.1	7	104
O=C(NCCOC(=O)c1cccs1)c1cccnc1	105	-1	-2.4	i	0.82	6	81
CCOC(=O)CSc1nnc(NC(=O)c2cc([N+](=O)[O-])cc([N+](=O)[O-])c2)s1	21	-9	-0.3	i	0.91	-7	75
O=C(CCCn1c(=S)[nH]c2cc3c(cc2c1=O)OCO3)N1CCc2ccccc2C1	97	-4	-4.0	i	0.96	-12	109
NNC(=O)/C(=C\c1cccs1)NC(=O)c1ccccc1	102	1	-0.5	i	0.74	6	99
Cc1cccc(NC(=O)Cn2nc([N+](=O)[O-])c(Br)c2C)n1	102	-5	nt	i	0.91	nt	nt
Cc1cc(F)ccc1NCC(=O)Nc1ccccc1Br	107	-10	-1.5	i	1.1	nt	nt
CCc1cccc2c1NC(=O)[C@]21[C@@H]2C(=O)N(Cc3ccccc3)C(=O)[C@@H]2[C@@H]2CCCN21	97	-16	0.5	i	0.91	nt	nt
CC(NC(=O)CNC(=O)C(Cc1ccccc1)NC(=O)OCc1ccccc1)C(N)=O (centres undefined)	124	-3	nt	i	1	40	114
Cc1oc(-c2ccc(F)cc2)cc1-c1nn2c(-c3ccco3)nnc2s1	nt	-4	-0.8	nt	nt	8	97
Cc1[nH]c(=O)[nH]c(=O)c1/C=C/C(=O)O	104	nt	nt	i	0.88	nt	nt
O=C(CSc1ccncc1)Nc1ccc2ccccc2c1	102	71*	nt	i	1.1	8	94
O=C(Nc1nc(-c2ccccc2)c(C(=O)c2ccccc2)s1)c1ccc(S(=O)(=O)N2CCCC2)cc1	349*[activator]	6	-1.7	i	1.1	-26	73
CCN1CCc2c(OCC(=O)Nc3ccc4c(c3)OCCO4)cccc2C1=O	101	0	nt	i	1.1	-5	71
CC(C)OCCCNC(=O)CN1CCN(Cc2ccccc2Cl)C1=O	98	-2	-0.6	i	0.89	3	130
O=C(Nc1nc2ccccc2[nH]1)c1cccc([N+](=O)[O-])c1	102	1	nt	i	1.1	nt	nt

Single records, from the list above.
Cc1[nH]c(=O)[nH]c(=O)c1/C=C/C(=O)O is entered as RGS16-Gao HTS: 104; PKD1 kinase inh: nt; GALR2 ag: nt; HSV replic up: i; HSV replic up primary fold: 0.88; INS promoter inh: nt; INS promoter inh cell count: nt
O=C(CSc1ccncc1)Nc1ccc2ccccc2c1 is entered as RGS16-Gao HTS: 102; PKD1 kinase inh: 71*; GALR2 ag: nt; HSV replic up: i; HSV replic up primary fold: 1.1; INS promoter inh: 8; INS promoter inh cell count: 94

More structures follow:
canonical_smiles	RGS16-Gao HTS	PKD1 kinase inh	GALR2 ag	HSV replic up	HSV replic up primary fold	INS promoter inh	INS promoter inh cell count
CC(=O)N1CCN(c2ccccc2NC(=O)c2ccc(C#N)cc2F)CC1	106	8	nt	i	0.98	nt	nt
Cn1c(-c2cccc([N+](=O)[O-])c2)cnc1NCc1cccc([N+](=O)[O-])c1	100	-6	nt	i	0.92	nt	nt
COc1ccc(CNC(=O)CSc2nc3[nH]ncc3c(=O)n2-c2ccccc2Br)cc1	97	-5	nt	i	0.88	-3	61
CC(C)CC(=O)NCCNC(=O)c1cc(OCC(F)(F)F)ccc1OCC(F)(F)F	101	2	-0.7	i	0.87	-25	157
C=CCn1c(-c2cccnc2Cl)nc2ccccc21	105	-15	nt	i	0.91	23	125
CC1=NN(S(=O)(=O)c2ccc(F)cc2)C(=O)c2ccccc2O1	101	-4	-3.0	i	0.94	9	74
CCCCNCCOc1ccccc1-c1ccccc1	111	-7	-2.6	i	0.92	-50	121
O=c1c(-c2ccco2)[n+]([O-])c2ccccc2n1OCc1ccccn1	105	-6	-1.1	i	1.1	5	113
CC1(C)CC(=O)C([N+](=O)[O-])=C(NCCCC(=O)O)C1	103	3	-2.4	i	0.94	16	69
CC(C)Cn1c(SCC(=O)NCc2ccco2)nnc1-c1ccncc1	96	-5	nt	i	0.88	nt	nt
CN1C2CCC1CC(OC(c1ccccc1)c1ccccc1)C2 (centres undefined)	98	nt	nt	i	0.78	nt	nt
C#CCNC(=O)C1=C[C@@H](C2CC2)[C@H](CCCO)[C@@H](OCC)O1	0.9*	4	nt	i	0.79	nt	nt
CCOc1cc(/C=C(/NC(C)=O)C(=O)O)cc(Cl)c1OCc1ccc(Br)cc1	104	nt	nt	i	1.1	nt	nt
Cc1ccc(Cl)c(OCCCCN(C)Cc2ccccc2)c1	99	8	-1.4	i	0.86	-9	109
O=C(CCCC(=O)NCC1CCCO1)NCC1CCCO1 (centres undefined)	146	-5	-0.9	i	0.97	-257	45
COC(=O)c1cc(OC)c(OC)cc1NC(=O)CSc1nnc(-c2cccnc2)n1C	98	-4	-0.8	i	0.8	-386	37
CCC(=O)N1CCCc2cc(S(=O)(=O)N3CCN(c4ncccn4)CC3)ccc21	107	-7	-2.1	i	0.97	nt	nt
COc1cccc(CN2CCCCC2C(=O)O)c1 (centres undefined)	100	-10	nt	i	1	nt	nt
COC(=O)c1cc2sc(Cl)cc2n1Cc1nc(-c2cccc(C)c2)oc1C	102	-14	-1.1	i	0.86	nt	nt
COc1ccc(C2Nc3ccccc3C(=O)N2Cc2ccccc2)cc1CSc1ccccn1 (centres undefined)	100	-5	-0.2	nt	nt	-7	148
O=C(NNC1=Nc2ccccc2SC1)c1ccc(Cl)cc1	103	nt	nt	i	0.97	nt	nt
N#C/C(=C\c1c(N2CCCCCC2)nc2ccccn2c1=O)C(=O)NC1CCS(=O)(=O)C1 (centres undefined)	101	8	8.9*	i	0.95	-43	65
Cc1ccc(C)c2[nH]c(=O)c(CCNS(=O)(=O)c3ccccc3)cc12	102	-4	-2.0	i	0.91	nt	nt
Nc1ncnc(Nc2ccc(S(N)(=O)=O)cc2)n1	114	nt	nt	i	0.92	nt	nt

(further entries)
The line under a structure holds: RGS16-Gao HTS, PKD1 kinase inh, GALR2 ag, HSV replic up, HSV replic up primary fold, INS promoter inh, INS promoter inh cell count
> Cc1ccc(NC(=O)CCn2nnc3ccccc32)c(C)c1
→ 99, 4, nt, i, 1, -31, 125
> Cc1ccc(Nc2nc(N)c([N+](=O)[O-])c(NCCO)n2)cc1C
→ 99, nt, nt, i, 0.74, nt, nt
> CCOC(=O)C(=O)Nc1ccccc1C(=O)OC
→ 108, -10, nt, i, 0.83, nt, nt
> COc1ccc(CN(CC(=O)NC2CCCC2)C(=O)c2onc(C(N)=O)c2N)cc1
→ 102, -16, 0.1, i, 0.86, 40, 104
> Cc1nc([N+](=O)[O-])cn1CC(O)c1ccccc1 (centres undefined)
→ 104, nt, nt, i, 1.3, nt, nt
> O=C(C1CCCC1)N1CCC(CO)(Cc2ccccc2Cl)CC1
→ 104, -2, nt, i, 0.82, nt, nt
> COc1ccc(N2CCN(C(=O)C3CCC(Cn4c(=S)[nH]c5ccccc5c4=O)CC3)CC2)cc1 (centres undefined)
→ 103, -10, 0.3, i, 0.97, nt, nt
> COCCNC(=S)N/N=C/c1c(C)[nH]c2ccccc12
→ 153, -10, -0.6, i, 0.86, -13, 80
> O=[N+]([O-])c1ccc(-n2nnnc2-c2ccccc2)c([N+](=O)[O-])c1
→ 155, -9, -1.7, i, 0.62, 14, 44
> CCCCc1cc(=O)oc2cc(OCC(=O)N(CC)CC)ccc12
→ 109, 9, 0.5, i, 0.84, nt, nt
> CC(=O)c1sc(-c2ccccc2)nc1C
→ 105, -4, nt, i, 1.1, 5, 100
> O=C(CCNC(=O)c1ccccc1)OCC(=O)c1cccc(Cl)c1
→ 102, -3, nt, i, 1.1, -7, 51
> COc1ccc(CNC(=O)c2sc3nc4c(c(C(F)(F)F)c3c2N)CCC4)cc1OC
→ 104, -2, 0.0, i, 0.98, -10, 138
> O=C(c1ccco1)N1CCN=C1SCc1ccccc1Cl
→ 103, 1, -2.2, i, 0.94, nt, nt
> COc1ccccc1NS(=O)(=O)c1cc(C(=O)NCCC(C)C)ccc1F
→ 94, -7, nt, i, 1.1, nt, nt
> CC(C)(CC(=O)O)CC(=O)Nc1cc(C(F)(F)F)cc(C(F)(F)F)c1
→ 97, nt, nt, i, 0.88, nt, nt
> COc1ccc(NC(=O)CSc2nnc(C3CCCCC3)n2N)cc1
→ 107, nt, nt, i, 1, nt, nt
> Cc1ccc(Oc2ncnc(N)c2[N+](=O)[O-])cc1C
→ 102, -5, nt, i, 0.88, -312, 48
> CCc1nnc(NC(=O)CSc2nnc(-c3ccccc3O)n2-c2ccc(C)cc2C)s1
→ 97, -5, 0.3, i, 0.6, 42, 75
> Cc1oc2c(cc(NS(=O)(=O)c3cccs3)c3ccccc32)c1C(=O)OC(C)C
→ 42, -2, -1.3, nt, nt, 6, 82
> O=C(COc1ccc(CO)cc1Cl)Nc1ccc(F)cc1
→ 99, 2, -1.9, i, 0.85, nt, nt
> CC(C)(C)c1ccc(NC(=O)NCc2ccco2)cc1
→ 60, -22, -3.1, i, 0.72, -29, 97
> COc1ccc(NC(=O)Cn2c(-c3ccccc3)cn(-c3ccc(C)cc3)c2=O)cc1
→ 101, 0, -2.3, i, 0.8, nt, nt
> COc1ccc(CCN2C(=O)N(c3ccc(OC)cc3)C(=O)C2CC(=O)Nc2ccccc2)cc1 (centres undefined)
→ 102, 5, nt, i, 0.92, nt, nt
> O=C(COc1ncnc2ccccc12)NCc1ccc2c(c1)OCO2
→ 100, -7, -1.8, i, 1, -23, 72
> CCCCOC(=O)c1ccc(NC(=O)c2ccccc2OC)cc1
→ 18*, 6, -0.9, i, 1.1, -9, 71
> CCOC(=O)C1C(=O)C=C(c2ccc([N+](=O)[O-])cc2)CC1c1ccccc1 (centres undefined)
→ 108, 2, -0.5, i, 1.1, 45, 79
> CCC(=O)Nc1cccc(NC(=O)CSc2nnnn2Cc2ccccc2)c1
→ 99, -1, -5.4, i, 0.75, -11, 53
> CCNC(=O)CN(CCc1ccccc1)S(C)(=O)=O
→ 98, -13, 0.1, i, 1.1, 13, 75
> COc1cc(NC(=O)c2ccnn2C)c(OC)cc1Cl
→ 105, 3, nt, i, 0.91, nt, nt
> Cc1csc(NC(=O)CSc2nc3ccccc3s2)n1
→ 107, -5, -1.5, i, 0.77, 31, 131
> CC(=O)COC(=O)C1CCN(S(=O)(=O)c2cc([N+](=O)[O-])ccc2Cl)CC1
→ 103, nt, nt, i, 0.88, nt, nt
> CC1CCCCN1S(=O)(=O)c1ccc(N(C(=O)c2cnccn2)C(C(=O)NC2CCCCC2)c2cccs2)cc1 (centres undefined)
→ 103, 4, -0.5, i, 0.97, -9, 55
> CCCC(=O)c1cn(CC(=O)OC)c2ccccc12
→ 104, 3, -2.8, i, 0.97, -25, 119

Taken from above.
`COc1ccc(CCN2C(=O)N(c3ccc(OC)cc3)C(=O)C2CC(=O)Nc2ccccc2)cc1` (centres undefined) in PKD1 kinase inh: 5
`CCCC(=O)c1cn(CC(=O)OC)c2ccccc12` in RGS16-Gao HTS: 104
`O=C(COc1ccc(CO)cc1Cl)Nc1ccc(F)cc1` in HSV replic up primary fold: 0.85
`Cc1csc(NC(=O)CSc2nc3ccccc3s2)n1` in PKD1 kinase inh: -5
